Arbovirus inh = arbovirus infection inhibition | arbovirus infection cell-based antiviral screen | inhibition, % at 10 µM | 200,000 compounds, 0.37% hits;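 active means inhibition from about 30%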;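 further: bluetongue infection of BSR cells; cell survival read as ATP light after 72 h; 0% = infected wells without compound and 100% = uninfected wells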
Mtb bLac sens = beta-lactam sensitization of Mtb H37Rv | M. tuberculosis H37Rv growth with meropenem, percent inhibition; hits of this screen are not shown here | inhibition, % at 25 µM | 330,000 compounds, 0.27% hits | AID 434955;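 active means about 74% or more and at least 40 points above the plate without the antibiotic, then above 30% in a dose series; inconclusive means first-round hits that could not be retested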;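 further: growth measured after seven days incubation then overnight dye step; 0% = bacteria only wells and 100% = bacteria with antibiotic; twin plates without the antibiotic show which effects depend on it; some results filed as inactive read as strong as hits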
RecA intein inh = Mtb RecA intein splicing inhibition | P9WHJ3 | cell-free RecA intein splicing, fluorescence | inhibition, %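 (about 9 µM by stock and volumes)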 | 290,000 compounds, 0.75% hits | AID 2221; in the data active means inhibition above about 30%; inconclusive means no clear call, values can overlap the other calls;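 further: 0% = vehicle wells and 100% = reference inhibitor control wells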
Target sequence (P9WHJ3 whole entry, looked up): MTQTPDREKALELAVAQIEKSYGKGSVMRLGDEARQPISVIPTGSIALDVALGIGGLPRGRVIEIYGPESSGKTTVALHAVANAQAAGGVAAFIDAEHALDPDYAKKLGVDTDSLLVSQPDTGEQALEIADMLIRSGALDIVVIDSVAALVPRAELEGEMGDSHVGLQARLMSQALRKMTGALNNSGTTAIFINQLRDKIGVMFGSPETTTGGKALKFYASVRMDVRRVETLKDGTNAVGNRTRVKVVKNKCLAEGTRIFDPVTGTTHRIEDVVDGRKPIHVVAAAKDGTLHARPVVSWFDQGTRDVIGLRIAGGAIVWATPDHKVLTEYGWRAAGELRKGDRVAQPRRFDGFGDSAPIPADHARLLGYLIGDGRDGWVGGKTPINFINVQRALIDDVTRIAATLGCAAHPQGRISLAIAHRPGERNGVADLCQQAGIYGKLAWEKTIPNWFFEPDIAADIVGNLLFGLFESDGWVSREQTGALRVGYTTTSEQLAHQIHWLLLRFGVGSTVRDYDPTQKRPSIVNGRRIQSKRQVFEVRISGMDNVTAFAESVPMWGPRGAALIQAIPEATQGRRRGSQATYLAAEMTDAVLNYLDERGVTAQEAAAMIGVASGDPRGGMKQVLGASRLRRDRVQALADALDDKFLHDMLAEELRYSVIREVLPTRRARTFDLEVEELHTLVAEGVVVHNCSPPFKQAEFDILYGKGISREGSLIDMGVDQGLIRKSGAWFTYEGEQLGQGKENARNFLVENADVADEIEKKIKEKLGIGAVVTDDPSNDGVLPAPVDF
YopH inh = inhibitors of Yersinia enterocolitica YopH tyrosine phosphatase; AID 898; fluorescence Ex485/Em525; inhibition, %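 (about 10 µM by stock and volumes)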; 140,000 compounds, 0.16% hits;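 active means inhibition of 50% or more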;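 further: controls were vehicle for no effect and minimum signal wells for full effect; inactives centre near -20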
Mtb H37Rv = M. tuberculosis H37Rv growth inhibitors, H37Rv strain (AID 1626) | M. tuberculosis H37Rv growth inhibition; higher % means a stronger effect | inhibition, % at 10 µM; hits with a dose series show IC50 in µM | 220,000 compounds, 0.95% hits;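 active means confirmed in a dose series; inconclusive means inhibition above 80% but not taken into the dose series; inactive means below 80% or under 30% at every dose of the series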;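 further: bacteria incubated seven days before Alamar blue readout; 0% = bacteria only wells and 100% = bacteria with antibiotic wells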
Arbovirus inh repeat = also measured in Arbovirus inh; calls as there; inhibition, %; measured here: 10K subset replicate screen; many hits read low in the repeat;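 first of two repeat runs on a subset; 0% = infected and 100% = uninfected wells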
* = called active by the depositor; ? = inconclusive; / = not tested or not shown. This is a subset (hit frequency here may not be typical).

SMILES	Arbovirus inh	Mtb bLac sens	RecA intein inh	YopH inh	Mtb H37Rv	others
Cn1nc(C(=O)OCc2ccccc2F)c2ccccc2c1=O	10	3	6.1	/	5%
CCOC(=O)c1c(NC(=O)C2CCCO2)sc(C(=O)OC(C)(C)C)c1C (stereo unspecified)	-23	61	-6.1	2	-1%
O=S(=O)(c1ccccc1)c1nc(-c2cccs2)oc1NCCCn1ccnc1	1	3	1.9	-28	2%
COc1ccc(OC)c(N(CC(=O)Nc2ccccc2C(=O)NCc2ccco2)S(C)(=O)=O)c1	-2	-8	-2.5	8	4%
COc1cc(/C=N/NC(=O)CC#N)cc(Br)c1O	-5	0	-1.8	/	3%
Cc1cccc(C(=O)OCc2cc(=O)oc3c(C)c(C)ccc23)c1O	/	-4	4.1	/	/
COc1ccc(N2CCOCC2)c(NC(=O)COc2cccc(C)c2)c1	/	-20	1.4	/	/
Cc1ccc(C(=O)NCCn2ccc3ccccc32)cc1[N+](=O)[O-]	-27	-4	3.6	/	-7%
O=C1CCCC(O)=C1N=Nc1cccc(C(=O)O)c1	18	1	-1.6	/	2%
COc1ccc(NC2=CC(c3cccc(OC)c3)N(c3ccc(OC)cc3)C2=O)cc1 (stereo unspecified)	-9	1	-2.6	-17	?
Cc1nc2sccc2c(=O)n1-c1cccc(Cl)c1	11	-10	-6.2	-21	-8%
FC(F)Oc1ccc(/C=N/c2c(-c3ccc(OC(F)F)cc3)nc3n2CCS3)cc1	2	-3	-1.7	-10	37%
O=C(c1cccc([N+](=O)[O-])c1)N1CC2C3C=CC(C3)C2C1 (stereo unspecified)	-7	-1	-0.9	/	-4%
COc1ccc2cc3c(N)nn(C(=O)c4ccc(F)cc4)c3nc2c1	/	1	-0.9	/	/
CC(C)Oc1nc(-c2ccccc2O)nc2ccccc12	-1	40	0.8	-47	7%
COc1ccc(/C=C/C(=O)c2cc3c(cc2N)OCO3)cc1	-8	21	4.3	/	1%
COc1ccc(OC)c(NC(=O)COC(=O)/C=C/c2c(C)nn(C3CCS(=O)(=O)C3)c2Cl)c1 (stereo unspecified)	7	4	-2.3	-71	-2%
Cc1ccccc1-n1c(=O)cc(NCc2ccc3c(c2)OCO3)[nH]c1=O	-4	-4	2.3	-1	2%
O=S(=O)(Nc1cccc(-n2cnnn2)c1)c1cc(Cl)ccc1Cl	/	5	-1.5	/	/
CC(C)NC(=O)COC(=O)c1ccc(S(=O)(=O)N2CCCC2)cc1	2	0	3.7	/	7%

Next section (four carried over from the part before).
SMILES	Arbovirus inh	Mtb bLac sens	RecA intein inh	YopH inh	Mtb H37Rv	others
COc1ccc(OC)c(NC(=O)COC(=O)/C=C/c2c(C)nn(C3CCS(=O)(=O)C3)c2Cl)c1 (stereo unspecified)	7	4	-2.3	-71	-2%
Cc1ccccc1-n1c(=O)cc(NCc2ccc3c(c2)OCO3)[nH]c1=O	-4	-4	2.3	-1	2%
O=S(=O)(Nc1cccc(-n2cnnn2)c1)c1cc(Cl)ccc1Cl	/	5	-1.5	/	/
CC(C)NC(=O)COC(=O)c1ccc(S(=O)(=O)N2CCCC2)cc1	2	0	3.7	/	7%
O=C1COC(c2ccccc2)C2CCCCN12 (stereo unspecified)	-8	4	-2.3	-30	-4%
Cc1ccc(C)c(Cn2nnc3c(=O)[nH]c(C4CCCN(S(=O)(=O)Cc5ccccc5)C4)nc32)c1 (stereo unspecified)	/	-12	0.2	/	/
O=c1/c(=C/c2ccccn2)sc2n1CN(c1ccccc1)CN=2	-4	12	-0.5	-67	-6%
CC(=O)c1c(C)nn(C(=O)N2CCOCC2)c1C	/	-8	0.0	/	-6%
CCN(CC)S(=O)(=O)c1ccc(C2CNC(=O)C2)cc1 (stereo unspecified)	10	-1	-2.2	-20	2%	Arbovirus inh repeat=7
Cc1ccc(N2C(=O)c3ccccc3C2=O)cc1C	-3	46	-1.1	13	10%
O=C(NCC1COc2ccccc2O1)c1ccc(-n2cncn2)c([N+](=O)[O-])c1 (stereo unspecified)	/	-2	-2.0	/	/
Cc1ccc(C)n1-c1ccc(C(=O)Nc2ccccc2)cc1	-19	6	4.5	-18	-4%
O=C(COC(=O)c1ccc([N+](=O)[O-])s1)Nc1ncc(C(F)(F)F)cc1Cl	1	10	-0.6	48	18%
COc1ccc(CNC(=O)N[C@H](C(=O)O)C(C)C)cc1OC	/	-6	-0.1	/	-7%
Cc1cccn2c(=O)c3cc(C(=O)O)n(C)c3nc12	-4	-6	-28	-24	-5%
CCOc1ccc(NC(=S)NC(C)c2cccs2)cc1 (stereo unspecified)	-4	-6	4.6	18	3%
CCOc1ccc(CCNC(=O)CN2C(=O)COc3ccc(S(=O)(=O)N4CCOCC4)cc32)cc1	/	0	-1.1	/	/
C[C@H](NC(=O)c1ccc(Cl)cc1)C(=O)NCCc1ccc(S(N)(=O)=O)cc1	4	0	1.3	/	2%
CC1(C)Cc2c(cnn2-c2ccc(F)cc2)C(NC(=O)CN2CCCCC2=O)C1 (stereo unspecified)	/	-3	3.9	/	/
CCn1c(SCC(=O)N2CCc3ccccc3C2)nc2c1c(=O)n(C)c(=O)n2C	10	?	1.5	-46	0%
Cc1cc(C)n(C(=O)c2c([N+](=O)[O-])cnn2C)n1	1	1	0.4	2	-2%
CN(c1ccccc1)S(=O)(=O)c1cccc(C(=O)OCC(=O)NCc2ccco2)c1	2	-1	1.4	/	-1%
CCOC(=O)c1oc2ccc(CNCCO)c(Cl)c2c1C	-2	-3	2.0	32	3%
CN1/C(=C\C(=O)c2ccccc2Cl)c2ccccc2CC1(C)C	23	3	8.0	-23	5%
COc1ccc(NC(=O)CSc2nnc(-c3ccccc3C)n2C)cc1	8	1	-0.2	6	8%
Cc1oc(C2CC2)cc1C(=O)O	-3	6	-2.4	-9	-2%
COc1cc(-c2cc(C(=O)NCc3ccc(S(N)(=O)=O)cc3)c3ccccc3n2)cc(OC)c1OC	/	1	-6.8	/	/
Cc1ccc(C2N(c3ccccc3)C(=S)N3CCCN23)cc1 (stereo unspecified)	0	5	-0.6	-17	-4%
Cc1ccc(C)c(C(=O)NC(C)c2ccc(-n3ccnc3)cc2)c1 (stereo unspecified)	/	3	1.3	/	/
COC(=O)c1ccc(/C=C/c2nc3ccccc3c(=O)[nH]2)cc1	/	5	-5.2	/	/
Cc1cc(NC(=O)CSc2nnnn2-c2ccccc2C)no1	/	100	-7.1	/	/
COc1ccc(-n2nc(C(=O)NCC(=O)NCc3ccccc3OC)c3ccccc3c2=O)c(OC)c1	5	6	0.3	/	5%
Cc1nn(CCO)c(C)c1Oc1ccccc1O	-3	-10	-1.6	-50	0%	Arbovirus inh repeat=7
CCOC(=O)c1[nH]c2ccccc2c1CCCN1C(=O)c2ccccc2C1=O	7	-15	10.0	-2	1%
OC1(c2ccc(Cl)cc2)CN(c2ccccc2)C2=[N+]1CCS2 (stereo unspecified)	0	9	5.9	/	5%
Brc1ccc(-c2noc(C3CCCCC3)n2)cc1	6	3	2.2	/	-3%
Cc1ccc(-c2noc(C3CCCN(C(=O)c4ccccc4Br)C3)n2)cc1 (stereo unspecified)	/	2	5.9	/	/
O=C(COc1ccc2ccccc2c1)NNC(=O)Cc1ccccc1	-3	-1	-0.7	-15	2%
CCCNC(=O)C1CC(c2ccccc2[N+](=O)[O-])=NO1 (stereo unspecified)	/	-8	-4.4	/	-5%
COc1ccc(CNS(=O)(=O)c2cc(-c3cc(C)no3)ccc2C(C)C)cc1	/	-4	5.5	/	/
Cc1cccc(N2CCN(C(=O)C3CCN(c4ncnc5c4nc4n5CCCCC4)CC3)CC2)c1C	/	100	-6.1	/	/
COc1ccc(NC(=O)C2CCCN(c3nc(C)cc(C)n3)C2)cc1 (stereo unspecified)	0	3	5.7	/	-6%
CN(C1CCS(=O)(=O)C1)S(=O)(=O)c1ccccc1[N+](=O)[O-] (stereo unspecified)	7	-4	-3.2	-33	3%
CCCCCCn1c(N2CCN(c3ccccc3)CC2)nc2c1c(=O)[nH]c(=O)n2C	-3	-3	-2.1	-34	12%

Four successive records out of the list so far, for reference:
SMILES	Arbovirus inh	Mtb bLac sens	RecA intein inh	YopH inh	Mtb H37Rv	others
O=C(COc1ccc2ccccc2c1)NNC(=O)Cc1ccccc1	-3	-1	-0.7	-15	2%
CCCNC(=O)C1CC(c2ccccc2[N+](=O)[O-])=NO1 (stereo unspecified)	/	-8	-4.4	/	-5%
COc1ccc(CNS(=O)(=O)c2cc(-c3cc(C)no3)ccc2C(C)C)cc1	/	-4	5.5	/	/
Cc1cccc(N2CCN(C(=O)C3CCN(c4ncnc5c4nc4n5CCCCC4)CC3)CC2)c1C	/	100	-6.1	/	/

Continuation.
SMILES	Arbovirus inh	Mtb bLac sens	RecA intein inh	YopH inh	Mtb H37Rv	others
CCC(C)NS(=O)(=O)c1ccc(OCC(=O)NCc2ccccn2)cc1 (stereo unspecified)	7	-3	0.1	/	3%
CC(C)(C)NC(=O)c1ccc2c(c1)N(CC(=O)N1CCCC1)C(=O)C(C)(C)O2	/	-1	-1.0	/	/
CC1(C)Cc2c(sc(/N=C/N3CCCC3)c2C#N)C(C)(C)N1	-16	1	-0.6	-25	2%
Cc1ccc(-n2nc(C)c(/C=N/n3c(C)n[nH]c3=S)c2Cl)cc1	2	-2	-1.9	/	6%
O=C(NCc1ccco1)c1ccc(COc2ccccc2[N+](=O)[O-])o1	/	-7	1.5	/	/
O=C1C(C23CC4CC(CC(C4)C2)C3)C(=O)N(c2ccccc2)N1c1ccccc1	2	-2	1.6	-24	-3%
COc1cc2c(cc1OC)CN(C(=O)CCN1C(=O)C3CCCCC3C1=O)CC2 (stereo unspecified)	1	-11	0.6	/	1%
COc1ccc(C[C@H]2CN3C(=NC[C@@H]3Cc3ccccc3)N2CCNC(=O)c2ccc(C)c(Br)c2)cc1	-22	100	14	/	?
CCCN(CC(=O)Nc1ccccc1C)C(=O)c1cc(=O)[nH]c2ccccc12	8	3	-0.1	/	-1%
Cc1cccc(NC2(C(F)(F)F)N=C3SCCN3C2=O)n1 (stereo unspecified)	5	5	8.8	-10	0%

Looked up by compound from the list above, 2 records:
SMILES	Arbovirus inh	Mtb bLac sens	RecA intein inh	YopH inh	Mtb H37Rv	others
O=C1C(C23CC4CC(CC(C4)C2)C3)C(=O)N(c2ccccc2)N1c1ccccc1	2	-2	1.6	-24	-3%
Cc1ccc(-n2nc(C)c(/C=N/n3c(C)n[nH]c3=S)c2Cl)cc1	2	-2	-1.9	/	6%

Remaining list, next part
SMILES	Arbovirus inh	Mtb bLac sens	RecA intein inh	YopH inh	Mtb H37Rv	others
CC(=O)Nc1ccc(-c2csc(NC(=O)Nc3ccccc3)n2)cc1	16	/	5.9	/	8%
Cc1ccc(NC(=O)/C(CN(C)C)=N\O)cc1	4	?	-1.4	-51	0%
Cc1ccccc1CNc1ncnc2cc(Cl)ccc12	/	-3	-3.3	/	/
Cn1c(NN)nc2c1c(=O)n(Cc1ccccc1)c(=O)n2C	/	-1	-4.2	/	/
CC1=C(C)CC(C(=O)NNC(=O)c2ccccc2O)C(C(=O)O)C1 (stereo unspecified)	-14	-1	-10	-57	0%
CCCCCn1c(=O)c(C(=O)Nc2cnccn2)c(O)c2ccccc21	-25	/	-2.2	/	?
C/[N+]([O-])=C\C1C(=O)CCCC1=O	-1	-1	-8.0	/	4%
COC(=O)C1C(C(C)C)N(c2ccccc2)OC1(C)O (stereo unspecified)	-1	-6	-3.1	59*	-4%	Arbovirus inh repeat=6
CCS(=O)(=O)N1CCC(C(=O)Nc2cccc(C(C)=O)c2)CC1	4	-5	-0.8	-1	-11%
CCOc1ccc(/C=N/NC(=O)CSc2ccccn2)cc1O	/	-3	1.3	/	1%
COc1ccc(CSc2nnc(C)n2N)cc1	-7	0	-0.4	-23	1%
Fc1ccc(N/N=C/c2ccc(N3CCOCC3)cc2)c(F)c1	-27	96	/	/	?
CC(NC(=O)CCCc1c[nH]c2ccccc12)c1ccc(F)cc1 (stereo unspecified)	/	-3	1.9	/	/
COc1ccc(Cl)cc1N(C(C)C(=O)NC1CCCC1)S(C)(=O)=O (stereo unspecified)	2	0	4.4	/	-1%
Cc1ccc(OCC(=O)Nc2sc3c(c2C#N)CCC3)cc1	-4	6	0.0	-29	-7%
COc1cccc(CC(=O)Nc2nccs2)c1	6	-7	-4.5	-8	-1%
O=c1cc(-c2ccccc2Cl)oc2c(NS(=O)(=O)c3ccccc3OC(F)(F)F)ccc(O)c12	/	-12	2.7	/	-1%
CC(Oc1ccc2c3c(c(=O)oc2c1)CCC3)C(=O)NCCCn1ccnc1 (stereo unspecified)	/	-5	-2.4	/	/
COc1cc(C(=O)NCCNC(=O)c2cnccn2)cc(OC)c1OC	/	-9	4.2	/	/
CC(C)c1ccc(N2C(=O)CC(Sc3nc4ccccc4o3)C2=O)cc1 (stereo unspecified)	2	26	13	-31	-8%
Cc1cc(C(=O)NCc2ccco2)no1	3	5	3.6	3	-2%
CCCCN1CC[C@H]2C=CC[C@@H](C(=O)NCc3ccc(OC)cc3)[C@H]2C1=O	/	4	1.7	/	-2%
